Screens: PubChem BioAssay, several laboratories
T cruzi repl = T. cruzi replication inhibition | T. cruzi beta-gal in NIH3T3, luminescence, 90 h | inhibition, % (concentration not given with the values) | actives 1.4% (n = 300,000) | AID 1885;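 active = mean inhibition across valid replicates above about 55%, limit read from the data; inconclusive = mean below that limit but half or more replicates reach it; inactive = mean below it, under half of replicates reach it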;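 also: signal also drops with host cell toxicity which is not excluded here; 0% = plate median of DMSO wells and 100% = zero luminescence signal; higher percent means less beta-gal luminescence so fewer parasites; stock transfer was 50 nL into about 50 µL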
Vif A3G = inhibitors of Vif binding to APOBEC3G peptide, primary screen, biochemical, TR-FRET, GST-Vif 1-94, biotin-A3G peptide, dose response retest (AID 1117319). actives 0.57% (n = 260,000). inhibition, %; hits with a dose series show IC50 in µM. TR-FRET GST-Vif / biotin-A3G peptide binding; higher % means a stronger effect; test concentration not given here; strong numbers were not always called active;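 active = above the screen mean plus three standard deviations and confirmed in dose response; inconclusive = results disagree or hit not tested in dose response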;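 also: Vif residues 1-94 fused to GST binding biotinylated APOBEC3G peptide 110-148; 0% = full assay without inhibitor and 100% = GST in place of GST-Vif; retest series ran down from 100 µM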
RanGTP-Impb inh = inhibitors of RanGTP-importin-beta interaction, primary screen, biochemical, FRET, CFP-Ran, YFP-importin-beta, homogeneous. cell-free CFP-Ran/YFP-importin-beta FRET ratio. inhibition, % (concentration not given with the values). actives 1.1% (n = 300,000). AID 2216;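 active = most replicates above 15%; inconclusive = exactly half above 15%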;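 also: 0% = DMSO wells and 100% = Ran loaded with GDP instead of GTP; wells of about 40 µL received 100 nL stock; the first replicate is given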
Beta apoptosis = blocks beta cell apoptosis; actives 0.8% (n = 300,000); protection from apoptosis, % (no concentration beside the values); INS-1E cytokine-induced death, ATP luminescence, 48 h; percent of positive-control rescue, neutral wells zero;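 active = all replicates at 75% or more, or half of them and the mean; inconclusive = half reach 75% but not the mean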;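 also: 0% = cytokine-treated negative control wells and 100% = positive control rescue; higher means more ATP so stronger rescue from cytokine killing; wells of about 40 µL received 100 nL stock; the first replicate is given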
rRNA inh HTS = inhibits bacterial ribosomal RNA function over humanized ribosomes | E. coli WT GFP vs humanized-ribosome RFP mutants, fluorescence, 24 h; stronger effect = lower value; DMSO median 0, no signal -100 | GFP signal change (wild-type ribosome), % (concentration not given with the values) | actives 1.6% (n = 350,000) | AID 720706;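 active = significant combined selectivity score with lowered wild-type GFP, culture density cut under 30%, mutant RFP and density less affected; inactive = any of these conditions unmet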; also: one replicate is shown; some compounds called inactive have numbers as strong as hits
AF4-AF9 inh = inhibitors of human MLL-AF4/AF9 interaction. P42568. AlphaScreen, biotin-AF4 peptide binding to FLAG-AF9. inhibition, % at 10 µM. actives 0.47% (n = 350,000);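 active = every replicate reaching a set inhibition limit, whatever the replicate mean, cut at about 25% in these data; inconclusive = mean inhibition reaches that limit but some replicates miss it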;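 also: 0% = plate neutral control median and 100% = total signal loss; the record names both 10 and 1 µM as test concentration; the first replicate is given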
Target sequence (P42568 whole entry, looked up): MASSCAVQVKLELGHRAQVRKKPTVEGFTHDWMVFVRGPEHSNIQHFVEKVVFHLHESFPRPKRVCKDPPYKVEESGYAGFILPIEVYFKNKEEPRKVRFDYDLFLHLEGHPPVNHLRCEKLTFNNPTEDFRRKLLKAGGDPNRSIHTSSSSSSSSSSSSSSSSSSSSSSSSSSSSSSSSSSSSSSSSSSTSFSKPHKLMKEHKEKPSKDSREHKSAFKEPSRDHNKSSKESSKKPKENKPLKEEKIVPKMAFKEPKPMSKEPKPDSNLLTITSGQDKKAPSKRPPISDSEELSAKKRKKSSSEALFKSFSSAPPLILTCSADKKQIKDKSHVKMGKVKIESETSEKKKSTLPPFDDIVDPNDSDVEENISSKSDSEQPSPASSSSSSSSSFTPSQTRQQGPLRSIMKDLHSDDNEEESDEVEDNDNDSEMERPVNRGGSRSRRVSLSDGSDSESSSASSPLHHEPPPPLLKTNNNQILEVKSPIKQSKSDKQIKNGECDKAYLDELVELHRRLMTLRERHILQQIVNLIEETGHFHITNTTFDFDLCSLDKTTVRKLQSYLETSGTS
Calb FLC = affects C. albicans growth with fluconazole. C. albicans CaCi-2 (fluconazole-resistant clinical isolate) + fluconazole, Alamar Blue growth, 48 h. growth inhibition, % (no concentration beside the values). actives 0.57% (n = 300,000). AID 1979;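 active = most replicates above 75%; inconclusive = exactly half above 75%; inactive = most below 75%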;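 also: all wells also contain fluconazole at 8 µg/ml as a sub-toxic cotreatment; 0% = median of DMSO wells and 100% = median of geldanamycin control wells; wells of about 8 µL received 7.5 nL stock; the first replicate is given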
Bfl-1 A1 inh = inhibitors of the anti-apoptotic protein A1, read as caspase activation; actives 0.066% (n = 330,000); MEF A1-2A-BIM cells, Caspase-Glo 3/7 luminescence, 3 h; percent of clofoctol response, vehicle zero; AID 2462; caspase activation, % (concentration not given with the values);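 active = over half of replicate activation scores above 10%, or exactly half above 10 with the replicate mean above 10; inconclusive = replicate mean below 10 yet half the replicates above 10; inactive = over half of replicates below 10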;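 also: wells of about 30 µL received 50 nL stock; many hits fall short of the cut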
rRNA inh HTS OD600 = recorded beside rRNA inh HTS, whose call it bears; OD600 change, %; measured here: OD600 growth;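 optical density of the mix in the first replicate; 0 = DMSO median and -100 = no signal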
rRNA inh HTS RFP = further read-out of rRNA inh HTS, marked with its call; RFP signal change, %; measured here: RFP humanized mutant strains;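 first replicate; 0 = DMSO median and -100 = no signal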
* marks the source's active call; other numbers are inactive results; ? = inconclusive; . = no result given.

Every second line gives: rRNA inh HTS OD600	rRNA inh HTS	Beta apoptosis	rRNA inh HTS RFP	Vif A3G	AF4-AF9 inh	RanGTP-Impb inh	Calb FLC	T cruzi repl	Bfl-1 A1 inh
CC(C)(C)OC(=O)N1CCC(c2cc(=O)n3[nH]cc(C(=O)NC4CCCC4)c3n2)CC1
→ -18	-17	-10	2.1	6%	-4.0	5.4	0	1	-0.3
CCc1ccc(C2CC(c3ccc(F)cc3)Nc3nc(N)nn32)cc1 (centres undefined)
→ -9	2	1	-1.9	?	-2.9	-3.3	10	20	-0.7
O=C(NCCF)C1Nc2ccc(OC(F)(F)F)cc2C2C=CCC12 (centres undefined)
→ .	.	-6	.	.	.	-0.2	-3	-2	0.0
COc1cc(OC)cc(-c2nc3ccccc3s2)c1
→ .	.	2	.	-2%	.	2.2	-3	7	-7.2
CSc1nc(N)nc2c1ncn2CC(=O)N1CCN(c2ccccn2)CC1
→ 5	4	-3	0.7	7%	-2.8	.	.	.	0.5
Cn1c(CC(=O)Nc2ccccc2Cl)nnc1SCC(=O)NC1=NCCS1
→ 10	8	-10	1.1	.	1.5	3.6	-11	2	0.0
O=C(NCc1ccc(F)cc1)C1CCN(c2cnccn2)CC1
→ -4	4	-4	0.7	3%	0.4	3.7	-31	-3	0.5
O=C(CCCc1ccccc1)NCc1cn2ccsc2n1
→ -14	0	-1	0.5	2%	3.3	1.3	-2	1	-0.1
CCOC(=O)C1CCN(S(=O)(=O)c2cc(Br)cc3c2N(C(=O)C2CC2)CC3)CC1
→ .	.	-2	.	-3%	.	1.0	3	4	0.0
O=C1CCCC2=C1C(c1cccs1)Nc1ccc3ncccc3c12 (centres undefined)
→ .	.	0	.	23%	.	1.7	23	18	0.4
CCn1c(SC(C)C(=O)N2CCOCC2)nc2sc(C)c(C)c2c1=O (centres undefined)
→ 11	6	.	8.8	2%	0.5	0.2	-3	19	-0.6
Cc1cccc(-n2nc3c(c2NC(=O)c2ccc4c(c2)OCO4)CS(=O)(=O)C3)c1C
→ 2	3	-2	1.6	.	2.6	-0.4	-3	0	0.7
CC(=O)Nc1cccc(NC(=O)Nc2ccc(C)c(Cl)c2)c1
→ -1	35	0	-0.3	.	-0.7	-2.5	11	0	-1.3
CCn1cnc2cc(NCc3ccccc3Cl)ccc21
→ -11	-10	-5	0.1	-7%	4.4	11	24	4	-0.3
COc1cc(OC)c(C2CC(=O)N3CN(c4ccccc4C)CSC3=C2C#N)cc1OC (centres undefined)
→ .	.	4	.	29%	.	-64	12	2	0.3
Cc1ccccc1-c1nc(S(=O)(=O)c2ccc(Cl)cc2)c(NCCN2CCOCC2)o1
→ .	.	-28	.	-1%	.	1.3	24	26	0.2
CCCCN1C(=O)c2ccc(C(=O)Nc3ccc(S(=O)(=O)N(C)C)cc3)cc2C1=O
→ .	.	6	.	6%	.	?	-6	0	-0.3
CCOc1ccc2nc(Nc3nc4ccc(NC(C)=O)cc4s3)sc2c1
→ .	.	15	.	-11%	.	-1.8	30	33	0.2
C=CCNc1nc(-c2sc(NC(=O)CC)nc2C)cs1
→ .	.	4	.	?	.	?	9	-31	1.0
CCOC(=O)C1(CC2CCCCO2)CCN(C(=O)Nc2ccccc2CC)CC1 (centres undefined)
→ -13	-12	0	-0.9	17%	-0.7	2.4	2	-1	0.9
CC(=O)Nc1ccc(C(=O)COC(=O)C2CC3CCCC(C2)C3=O)cc1 (centres undefined)
→ 8	0	-7	-1.3	3%	-6.4	6.9	-6	1	-0.7
Cc1cccc(N=C2N=C(N)c3ccccc32)c1
→ .	.	-6	.	-1%	.	1.0	-2	-8	0.1
COc1ccc(CCNC(=O)CC2(CC3=NS(=O)(=O)c4ccccc4N3)CCCC2)cc1OC
→ -6	-2	-5	0.2	1%	0.2	-0.7	21	2	-0.7
Cc1nc(S(=O)(=O)N(C)c2ccccc2)c(C#N)c(C)c1Cl
→ .	.	-4	.	-6%	.	1.4	-13	-10	0.7
Cc1cc(C)cc(OCC(=O)OCC(=O)Nc2cc(C)nn2-c2ccccc2)c1
→ 11	-4	1	-2.5	-8%	-0.8	.	.	.	-0.1
CCCCCCOc1ccc(/C(C)=N/NC2=NCCN2)cc1
→ -78	-53	47	-19	-5%	?	2.3	12	51	0.1
CCOc1ccc(N2C(=O)Nc3ccc(Br)cc3C2(O)C(=O)NCCCN(C)C)cc1 (centres undefined)
→ 12	8	1	-0.4	2%	1.6	-1.8	2	-12	-1.3
CC(C)(C)c1ccc(OCCC(=O)NC2=NCCS2)cc1
→ .	.	-9	.	2%	.	0.0	-4	7	1.3
Cc1ccccc1NC(=O)CNc1ccc(Cl)c(C(F)(F)F)c1
→ .	.	2	.	4%	.	0.5	-2	-7	-0.7
CCC(=O)c1cn(CC(=O)Nc2ccccc2Cl)c2ccccc12
→ 0	2	0	2.5	1%	-20	3.1	-1	-16	0.2
COc1cc2c(cc1OC)C(c1cccnc1)CC(=O)N2 (centres undefined)
→ 6	1	-7	0.4	6%	0.1	1.8	-7	-6	0.6
CNS(=O)(=O)c1cccc(C(=O)OCC(=O)Nc2ccc(OC)cc2[N+](=O)[O-])c1
→ -5	-16	-9	-0.1	6%	3.2	-2.1	-17	-4	-0.3
C=C(C)Cn1c(N(CCO)Cc2ccccc2)nc2c1c(=O)[nH]c(=O)n2C
→ 3	-2	-2	0.6	-4%	-0.8	-1.8	4	-19	0.2
COc1ccccc1C(=O)NC(CCSC)C(=O)NCCCSc1ccccc1 (centres undefined)
→ -12	3	.	-0.4	-12%	3.6	10	5	5	1.1
C=CCOC(=O)C1=C(C)N=c2s/c(=C3\C(=O)N(CC(=O)O)c4ccccc43)c(=O)n2C1c1ccc(OC)cc1 (centres undefined)
→ 10	11	3	0.4	22%	-11	-4.4	30	1	-0.6
COc1cc2c(cc1NC(=O)COC(=O)[C@@H](NC(=O)c1ccccc1F)C(C)C)oc1ccccc12
→ 11	22	6	-0.6	.	-0.8	1.4	-3	5	0.8
O=C(N1CCOCC1)N1CCc2ccccc21
→ 4	7	-5	-0.5	.	0.0	5.2	-8	-12	0.1
COc1cc(/C=N/n2c(C)n[nH]c2=S)ccc1OCc1ccccc1
→ .	.	-2	.	0%	.	3.2	6	-10	-2.1
COc1ccc(C2CC2/C(C)=N/OC(=O)c2ccc(F)cc2)cc1 (centres undefined)
→ -68	-45	-2	-1.2	-13%	-2.8	1.1	-2	-8	1.1
CCC(C)OC(=O)c1cc(C)nc2c(Br)cc(Br)cc12 (centres undefined)
→ .	.	.	.	-29%	.	-1.2	0	-2	0.5
O=C(OCCN=C1NS(=O)(=O)c2ccccc21)c1ccccc1
→ .	.	0	.	4%	.	-0.2	3	-13	-1.2
O=C(NCCCN1CCN(Cc2ccccc2Cl)CC1)Nc1ccccc1
→ .	.	-1	.	2%	.	2.8	1	19	-0.3
COCCCNC(=S)N1CCN(c2nc(-c3ccccc3)cs2)CC1
→ -17	-22	-1	-1.1	.	7.1	-4.2	5	7	0.3
O=C(CCc1nc2ccccc2s1)OCC(=O)N1CCN(C(=O)c2ccco2)CC1
→ .	.	-9	.	28%	.	-2.4	3	-11	-0.8
O=C(Nc1ccc([N+](=O)[O-])cc1)/C(=C/c1cccc([N+](=O)[O-])c1)NC(=O)C1CCCCC1
→ .	.	13	.	0%	.	-3.1	7	32	0.2
Cc1cccc2cc(CN(CCN(C)C)C(=S)NCc3ccco3)c(=O)[nH]c12
→ .	.	-11	.	.	.	?	11	-3	-0.1
Cc1cccc(-n2c(=S)[nH]c3nc4c(cc3c2=O)COC(C)(C)C4)c1
→ 13	11	.	-0.6	.	-1.1	-1.2	-9	-13	0.0
Cc1ccc(NC(=O)CSc2ncccn2)cc1S(=O)(=O)N1CCOCC1
→ -13	-2	-5	9.1	.	-3.8	.	.	.	0.7
CCOC(=O)c1cc(-c2ccco2)nc2c1c(C)nn2-c1cccc(Cl)c1
→ .	.	-2	.	15%	.	3.0	-5	-21	-0.7
N#Cc1ccsc1NC(=O)CN1CCN(S(=O)(=O)c2ccccc2C(F)(F)F)CC1
→ -20	-17	2	-5.2	1%	-1.3	-2.2	21	10	-0.3
COc1cc(C2C(C#N)=C(N)Oc3cc(C)n(CCN4CCOCC4)c(=O)c32)cc(OC)c1OC (centres undefined)
→ .	.	-1	.	5%	.	?	12	-17	-0.2
CC(NC(=O)CN1C(=O)NC2(CCCC2)C1=O)c1ccc(Cl)cc1Cl (centres undefined)
→ .	.	-2	.	-1%	0.2	.	.	.	-0.2
NC(=O)c1c(NC(=O)C2c3ccccc3Oc3ccccc32)sc2c1CCCCC2
→ .	.	-2	.	.	.	-2.2	-12	7	-0.6
O=C(Nc1c(Cl)cc(Cl)cc1C(=O)NCC1CCCO1)c1ccco1 (centres undefined)
→ 14	2	-4	-4.1	-3%	.	-1.5	-4	-1	0.4
COc1ccc(-n2nc(C(=O)NCc3ccco3)c3ccccc3c2=O)cc1
→ 7	5	-4	-0.9	70%	.	-0.9	18	2	0.1
Cc1cccc(/C=N/NC(=O)CN2CCCCCCC2)c1
→ 8	16	-12	-3.0	1%	-15	1.0	3	-6	-0.1
CS(=O)(=O)c1ccc(-c2nnn(CC(N)=O)n2)cc1
→ 7	15	-3	-0.1	.	2.2	-0.9	-2	-14	0.0
Cc1cc(C(=O)NNc2ccc(F)cc2F)no1
→ 13	9	-9	-0.8	-4%	-1.2	-1.5	?	.	0.3
CNC(=O)C(=O)NCC1OCCCN1S(=O)(=O)c1ccc(F)cc1C (centres undefined)
→ 8	10	-12	-1.0	.	-3.5	-2.2	0	-8	-1.4
Cc1cc(C(=O)NNC(=O)c2cccc(N(C)C)c2)c(C)o1
→ 19	19	3	0.3	.	0.1	-0.4	0	5	0.0

(continued)
Every second line gives: rRNA inh HTS OD600	rRNA inh HTS	Beta apoptosis	rRNA inh HTS RFP	Vif A3G	AF4-AF9 inh	RanGTP-Impb inh	Calb FLC	T cruzi repl	Bfl-1 A1 inh
COc1cc(/C=C2\SC(=Nc3ccccc3)N(CCc3c[nH]c4ccccc34)C2=O)ccc1OC(C)C(=O)O (centres undefined)
→ .	.	-16	.	-2%	.	2.7	32	-4	-0.2
S=C(NCc1ccncc1)Nc1ccc(Cl)cc1Cl
→ -6	-6	9	-3.2	-8%	0.9	-0.6	9	-45	-0.2
O=C(O)/C=C\C(=O)Nc1ccccc1F
→ 1	29	2	-3.3	5%	-0.6	3.3	0	-2	0.5
COc1cccc2[nH]c3c(N4CCCC(C)C4)ncnc3c12 (centres undefined)
→ -53	-39	27	-23	2%	-1.6	7.2	42	29	-0.3
CCOc1ccc2c(c1)c1nnc(SCC(=O)N3CCC(C)CC3)nc1n2C
→ .	.	.	.	-4%	.	2.7	-5	25	.
Cc1csc(SCCN2C(=O)c3ccccc3C2=O)n1
→ -1	0	1	0.5	18%	.	0.5	13	-10	-0.6

An excerpt; count on the stated rates, not on these rows.
